Assay outcomes as filed in PubChem.
CBX7 inh: CBX7 chromodomain binding inhibitors, primary screen, biochemical, AlphaScreen | AID 1224903, 2016 | Chromobox protein homolog 7 (Homo sapiens), O95931 | normalised signal (fraction of DMSO) (no concentration beside the values) | 66,000 compounds, 1.1% hits | AlphaScreen His6-CBX7 / biotin-H3K27me3 peptide binding; active compounds read low; in the data active = normalised signal below about 0.5;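 note: 100 nL library stock added to about 20 µL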
Target sequence (O95931 whole entry, looked up): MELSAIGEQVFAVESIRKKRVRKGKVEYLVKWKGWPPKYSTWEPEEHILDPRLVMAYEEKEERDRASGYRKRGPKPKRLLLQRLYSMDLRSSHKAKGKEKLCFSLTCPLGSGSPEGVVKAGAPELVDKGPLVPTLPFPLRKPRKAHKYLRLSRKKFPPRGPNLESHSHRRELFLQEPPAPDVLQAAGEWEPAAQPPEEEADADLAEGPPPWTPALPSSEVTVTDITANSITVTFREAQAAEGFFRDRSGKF
CBX7 inh z-score: also measured in CBX7 inh; calls as there; z-score; measured here: z-score of CBX7 signal; some inactives read as strong as hits; reference of the scale not given here;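 same signal on another scale; lower means less binding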
* hit, by the source's call. This is a subset (hit frequency here may not be typical).

Structure | CBX7 inh | CBX7 inh z-score
COc1cc2c(C(=O)NCCCN3CCCCCC3)cn(CC(C)C)c(=O)c2cc1OC | 0.96 | -1.5
CCOC(=O)c1ccc(Nc2nc(-c3cc4ccccc4oc3=O)cs2)cc1 | 1 | 0.53
COc1ccccc1-c1cc(C(=O)N2CCN(c3ccc(F)cc3)CC2)no1 | 1.1 | 0.92
Cc1ccn2c(NC(=O)COc3ccc(Cl)cc3Cl)c(-c3ccc(F)cc3)nc2c1 | 1 | 0.73
COc1ccc(Nc2cc(C(=O)NCCc3ccc(OC)c(OC)c3)c3ccccc3n2)c(OC)c1 | 0.79 | -0.9
COc1ccccc1CNC(=O)CN(c1ccc(C(C)C)cc1)S(=O)(=O)c1c(C)nn(C)c1C | 0.98 | -0.44
O=C(Nc1cccc(F)c1)c1oc2ccccc2c1NC(=O)c1c(F)cccc1F | 1 | 0.31
Cc1cc(OCC(O)CN2CCC(C)CC2)ccc1Cl (stereo not drawn) | 1.1 | 1
Cc1nc(-c2ccccc2)sc1C(=O)Nc1ccc(Br)cc1 | 1.1 | 3.3
O=C(NCCCN1CCN(c2ccccc2F)CC1)c1cc2c(s1)-c1ccccc1OC2 | 1.2 | 4.4
COC(=O)c1ccccc1NC(=O)CN1C(=O)CSc2ncccc21 | 1 | 0.062
CCC(=O)N1c2ccc(S(=O)(=O)NCCN3CCCCCC3)cc2CC1C (stereo not drawn) | 0.85 | -0.63
CC(C)c1ccc(N(C)S(=O)(=O)c2ccc3[nH]cc(C(=O)N4CCCC4)c(=O)c3c2)cc1 | 1.1 | 1.1
O=C(Cn1cnc2sc3c(c2c1=O)CCCC3)Nc1ccc(F)cc1F | 0.97 | -0.74
Cc1ccc(-n2nc3c(c2NC(=O)c2ccc4c(c2)OCO4)CSC3)cc1 | 1 | 0.63
O=C(NC1CCCCC1)C1CCCN(S(=O)(=O)c2cccs2)C1 (stereo not drawn) | 1 | 0.058
c1cnc2c(SCc3cn4ccccc4n3)cccc2c1 | 0.71 | -6.5
O=C1NC(Cc2c[nH]c3ccccc23)C(=O)N1c1ccc(Cl)cc1 (stereo not drawn) | 1 | -0.077
O=C(NC1CC1)c1ccc2c(c1)N(Cc1ccc(Cl)cc1)C(=O)CS2 | 1.1 | 4.7
Cc1cccc(NC(=O)c2ccc(COc3ccccc3Br)cc2)n1 | 1.1 | 4.4
O=C(NC1CCCCC1)C1c2cccn2CC(=O)N1Cc1ccc(F)cc1 (stereo not drawn) | 1 | 0.45
Oc1ccc(Cl)cc1-c1cc(C(F)(F)F)on1 | 1.1 | 0.34
Cc1ccc2nc(Nc3ccccc3)nc(-c3ccccc3)c2c1 | 1.9 | 15
COc1cc(NC(=O)C2CCN(c3cc(C)nc4c(-c5ccc(Cl)cc5)c(C)nn34)CC2)ncn1 | 1.1 | 2.5
CCCCCNC(=O)c1c[nH]c2ccc(S(=O)(=O)N(C)c3ccc(C(C)C)cc3)cc2c1=O | 1.1 | 1.1
CC(NC(=O)Cn1ncc2ccsc2c1=O)c1ccc2c(c1)OCCO2 (stereo not drawn) | 1 | 0.75
CC(=O)Nc1ccc(S(=O)(=O)Nc2nc(C)cc(C)n2)cc1 | 0.79 | -7.5
Cc1c(C(=O)NCc2ccccc2Cl)oc2ccc(S(=O)(=O)N(C)C3CCCCC3)cc12 | 0.95 | -0.45
Cc1ccc2c(c1)N(CCC(=O)NCc1ccc3c(c1)OCO3)C(=O)C(C)O2 (stereo not drawn) | 0.84 | -2.2
O=C(Nc1ccc2c(c1)OCCO2)c1ccc(CNc2c(N3CCCCC3)c(=O)c2=O)cc1 | 1.3 | 0.8
Cc1c(C(=O)c2ccccc2)nnn1-c1cnn(-c2ccccc2)c(=O)c1Br | 0.92 | -0.39
O=C(O)CNc1ccccc1-c1nc2ccccc2[nH]c1=O | 1.2 | 1.9
Cc1ccc(CN2CCN(CC(=O)NCc3ccc(Cl)cc3)C2=O)cc1 | 1.1 | 1.5
NC(=O)c1ccccc1NC(=O)c1cc(-c2ccccc2)nc2ccccc12 | 1.3 | 7.2
O=C(NC1CCCC1)c1cc(Nc2cccc(C(F)(F)F)c2)nc2ccccc12 | 1.1 | 3.8
Nc1nc(CSc2ncn[nH]2)cs1 | 1.1 | 0.55
Cc1cccc(NC(=O)C2(N3CCC3=O)CCCCC2)c1 | 1.2 | 1.6
COc1ccc(-c2csc(NC(=O)c3cc(-c4ccccc4)nc4ccccc34)n2)cc1OC | 0.89 | -1.7
CCC1=Nc2cc(C(=O)N3CCN(c4cc(C)ccc4C)CC3)ccc2Sc2ccc(Cl)cc21 | 0.7 | -4.2
CCOCCCNC(=O)c1cc(-c2cccs2)nc2ccccc12 | 1.3 | 2.6
COc1cc(C2CC(=O)NC3=C2C(=O)CC(C)(C)C3)ccc1OCc1ccccc1 (stereo not drawn) | 0.88 | -1.5
Cc1ccc(Nc2nc(-c3ccccc3)c(Oc3ccc(Cl)cc3)s2)cc1C | 0.73 | -7.1
COc1ccc(C2C(C(=O)NCCCN3CCC(C)CC3)c3ccccc3C(=O)N2C)cc1 (stereo not drawn) | 1.5 | 5
COc1ccccc1N1C(=O)CC(N2CCN(c3ccccc3)CC2)C1=O (stereo not drawn) | 1 | 0.7
Cc1cccc(-n2ncc3c(NC(c4ccccc4)c4ccccc4)ncnc32)c1 | 0.92 | -1.2
CN(CC(=O)NCCc1ccc(Cl)cc1)S(=O)(=O)c1ccc2c(c1)CCC(=O)N2 | 1 | 1.3
Cc1ccc2c(c1)NC(=O)C(CC(=O)NCCC1=CCCCC1)O2 (stereo not drawn) | 0.99 | -0.26
COc1cccc(-c2nnc(SCC(=O)N3CCc4ccccc43)o2)c1 | 1.1 | 3.9

Shown with values under each structure: three of the compounds above
Screens in order: CBX7 inh, CBX7 inh z-score
COc1ccc(C2C(C(=O)NCCCN3CCC(C)CC3)c3ccccc3C(=O)N2C)cc1 (stereo not drawn)
 : 1.5, 5
Cc1ccc2c(c1)NC(=O)C(CC(=O)NCCC1=CCCCC1)O2 (stereo not drawn)
 : 0.99, -0.26
COc1cc(C2CC(=O)NC3=C2C(=O)CC(C)(C)C3)ccc1OCc1ccccc1 (stereo not drawn)
 : 0.88, -1.5

Additional entries:
Structure | CBX7 inh | CBX7 inh z-score
Cc1nn(CC(=O)NCCN2CCOCC2)c(=O)c2ccccc12 | 1 | 0.6
Cc1ccc(S(=O)(=O)N=C(N)Nc2nc(C)c3cc(C)ccc3n2)cc1 | 0.96 | -0.56
COc1cccc(NC(=O)CS(=O)(=O)Cc2nc(-c3ccc(C)cc3)oc2C)c1 | 0.84 | -0.34
CC(=O)c1nn(-c2ccccc2)cc1C(=O)c1nc2ccccc2s1 | 0.81 | -5.2
COc1cc2c(C(=O)NC3CCCCCC3)cn(CC(C)C)c(=O)c2cc1OC | 1.2 | 1.8
Cn1nc(-c2ccccc2F)c2cc(C(=O)Nc3cccc(Cl)c3)sc21 | 0.98 | -0.4
Cc1noc(C(=O)NCc2cccnc2)c1Cl | 1 | 1.1
O=C(C1CCN(S(=O)(=O)c2cccnc2)CC1)N1CCN(c2ccccc2Cl)CC1 | 1 | 0.74
Clc1ccc(OCc2nc(-c3ccc(Cl)cc3)no2)cc1 | 1.1 | 0.15
COc1ccc(NS(=O)(=O)c2ccc3c(c2)CC(C)N3C(C)=O)cc1OC (stereo not drawn) | 0.97 | -1.3
CC1CCCN(CCCNC(=O)CN2C(=O)COc3ccccc32)C1 (stereo not drawn) | 1.1 | 3.1
CCOc1ccc(-n2c(C)nc3cc(C(=O)NCCN4CCOCC4)ccc32)cc1 | 0.98 | -0.56
Brc1ccc(-c2nnc3ccc(OCCN4CCOCC4)nn23)cc1 | 1 | -0.018
Cc1ccc(-c2cn(-c3cccc(Cl)c3)c(S(=O)(=O)CC(=O)Nc3ccccc3F)n2)cc1 | 0.83 | -4.9
CCCCOc1ccc(C(=O)Nc2c(C(=O)c3ccc(OC)cc3)oc3ccccc23)cc1 | 1.5 | 6.5
O=C(Nc1c2c(nn1-c1ccc(F)cc1)CS(=O)(=O)C2)c1cccc(Cl)c1 | 0.99 | -0.17
COc1ccc(-c2nn(C)c(=O)c3ccccc23)cc1CNS(=O)(=O)c1ccccc1 | 1 | 0.24
O=C(Nc1cnn(Cc2ccc(Cl)cc2Cl)c1)c1cc(-c2ccco2)on1 | 0.94 | -1.4
COc1ccc(CC(=O)Nc2ccc3nc(N4CCOCC4)cc(C)c3c2)cc1OC | 1.1 | 0.58
CCc1ccccc1NC(=O)CN1C(=O)c2ccccc2Sc2ccc(C(=O)N3CCCC3)cc21 | 0.95 | -0.62
c1ccc(C(Cc2nc(-c3cccnc3)no2)c2ccccc2)cc1 | 0.93 | -0.095
COc1ccc(CN2C(=O)CCC2(C)C(=O)NC2CCC(C)CC2)cc1 (stereo not drawn) | 0.82 | -3
Cc1sc2nc(Cc3ccccc3)nc(Nc3ccc(F)cc3)c2c1C | 1 | 0.34
Cc1cccc(-c2noc(COc3cc(C)c(Br)c(C)c3)n2)c1 | 1.3 | 14

In the list so far, two have two or more sulfur atoms:
Structure | CBX7 inh | CBX7 inh z-score
O=C(NC1CCCCC1)C1CCCN(S(=O)(=O)c2cccs2)C1 (stereo not drawn) | 1 | 0.058
Nc1nc(CSc2ncn[nH]2)cs1 | 1.1 | 0.55

New compounds follow
Structure | CBX7 inh | CBX7 inh z-score
CC(C)OCCCNS(=O)(=O)c1ccc2c(c1)CCN2C(=O)C1CC1 | 1 | 0.57
O=C(c1ccc2c(c1)N(Cc1cccc(Cl)c1)C(=O)c1ccccc1S2(=O)=O)N1CCCC1 | 0.72 | -1.7
COc1ccc(-n2nnnc2SCC(=O)Nc2ccc(F)cc2)cc1 | 1 | 0.076
O=C(NCc1cccnc1)c1cc2n(n1)C(C(F)(F)F)CC(c1ccc(Cl)c(Cl)c1)N2 (stereo not drawn) | 1.1 | 0.85
CC(=O)N1CCc2cc(S(=O)(=O)Nc3cc(C)ccc3C)ccc21 | 1 | 0.27
c1ccc(OCc2nc(-c3ccccn3)no2)cc1 | 1 | 0.21
COc1ccccc1N1CCN(CC(O)COc2ccc(C(C)C)cc2)CC1 (stereo not drawn) | 0.94 | -1.9
O=C(NCCc1ccccc1)C1c2ccccc2C(=O)N1C1CC1 (stereo not drawn) | 1.1 | 0.97

Another view of four compounds above:
Second line of a record – CBX7 inh | CBX7 inh z-score
> CC(C)OCCCNS(=O)(=O)c1ccc2c(c1)CCN2C(=O)C1CC1
    1 | 0.57
> O=C(c1ccc2c(c1)N(Cc1cccc(Cl)c1)C(=O)c1ccccc1S2(=O)=O)N1CCCC1
    0.72 | -1.7
> COc1ccc(-n2nnnc2SCC(=O)Nc2ccc(F)cc2)cc1
    1 | 0.076
> O=C(NCc1cccnc1)c1cc2n(n1)C(C(F)(F)F)CC(c1ccc(Cl)c(Cl)c1)N2 (stereo not drawn)
    1.1 | 0.85

Later entries.
Structure | CBX7 inh | CBX7 inh z-score
COC(=O)Nc1ccc(S(=O)(=O)N2CCC(C(=O)N3CCC(C)CC3)CC2)cc1 | 1.1 | 0.89
CCc1nc2nc(C)cc(Nc3cccc(C(F)(F)F)c3)n2n1 | 0.86 | -1.6
CCOc1ccc2nc(N3CCC(C(=O)NCc4cccc(Br)c4)CC3)sc2c1 | 1 | 1.4
CCCn1cnc2cc(NCc3cccc(OC)c3O)ccc21 | 0.91 | -2.2
CCCN(C(=O)Cc1c(C(=O)O)n(CC)c2ccccc12)c1cccc(Cl)c1 | 0.98 | -0.42
CCC(Oc1ccc2c(c1)C(=O)CC(C)(C)O2)C(=O)N1CCC(C)CC1 (stereo not drawn) | 0.99 | -0.19
CCOC(=O)N1CCC(Nc2c(NC(C)c3ccccc3)c(=O)c2=O)CC1 (stereo not drawn) | 0.89 | -1.3
O=S(=O)(c1cccc(Cl)c1)n1c(/C=C/c2ccccc2Cl)nc2ccccc21 | 1 | 0.89
COCCN1Cc2cccc(C(=O)NC3CCCC3)c2C1=O | 1.1 | 0.062
O=C(c1ccc2c(c1)N(Cc1ccccc1)C(=O)c1ccccc1S2(=O)=O)N1CCCCC1 | 1.1 | 1.3
Cc1ccc(NCC(O)Cn2c3c(c4cc(C)ccc42)CCCC3=O)cc1 (stereo not drawn) | 0.94 | -1.3
CCN1CCN(C(=O)Cn2nc(Cc3cccnc3)c3ccccc3c2=O)CC1 | 1 | 0.011
Cc1cc(N2CCN(C)CC2)nc2ccc(NC(=O)C3CCCCC3)cc12 | 1.1 | 1
CC(=O)Nc1cccc(NC(=O)c2sc3nc(-c4ccccc4)cn3c2C)c1 | 0.92 | -1.6
COc1cccc(N2C(=O)CC(N3CCC(C)CC3)C2=O)c1 (stereo not drawn) | 0.78 | -3
COc1ccc(CNC(=O)CCc2nc3cccnc3n2Cc2ccc(OC)cc2)cc1 | 1.1 | 2.2
CCOC(=O)c1cc(-c2ccc(OC)c(OC)c2)no1 | 1.1 | 3.1
COc1ccc(-c2c(C)nn3c(N4CCOCC4)cc(C)nc23)cc1OC | 1 | 0.19
O=c1[nH]cnc2c1nnn2Cc1ccccc1 | 1 | 0.22
COc1ccc(NC(=O)Cn2c(-c3nonc3N)nc3ccccc32)cc1OC | 0.95 | -0.61
Cc1csc(NC(=O)Cn2nc(Cc3ccncc3)c3ccccc3c2=O)n1 | 1.1 | 1.3
COc1ccc(N2C(=O)CC(N3CCN(CCO)CC3)C2=O)cc1 (stereo not drawn) | 0.97 | -0.41
COc1ccccc1NC(=O)Cn1ncc2c1-c1ccccc1OC2 | 0.79 | -3
O=C(NCCC1=CCCCC1)C1CCN(c2nc3ccccc3o2)CC1 | 0.97 | -1.1
O=c1[nH]c2ccc(Cl)cc2c(-c2ccccc2)c1N1CCc2ccccc2C1 | 1 | -0.051
CC(C)(C)n1cnc2cc(NCc3cccc(Br)c3)ccc21 | 0.75 | -6.4
O=C(O)COc1ccc2c(=O)c(-c3ccc4c(c3)OCCO4)coc2c1 | 0.99 | -0.51
O=C(NCCOc1ccccc1)c1cc(-c2ccccc2)nc2c(Br)cc(Br)cc12 | 1.1 | 1.8
COc1ccc(-c2c(C)nn3c(N4CCN(c5cc(Cl)ccc5C)CC4)cc(C)nc23)cc1OC | 0.99 | -0.023
Cc1ccc(NC(=O)c2onc(C)c2Cl)cc1 | 1 | 0.98
CCOCCCNC(=O)c1ccc2c(c1)N=C(C)c1c(C)ccc(C)c1S2 | 0.94 | -0.88
